Rango complex inh = prevents formation of the Rango-importin beta complex. 340,000 tested, 0.031% active. Rango CFP/YFP FRET sensor + importin beta, 45 min. Q14974. Potency, µM (doses to about 92.2 µM), without a hit: at the top dose inhibition of complex formation; active = rising FRET ratio curve, often small or poorly fitted; inconclusive = mostly compound fluorescence or quenching in the first reads; inactive = flat curves in all reads;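 further: potency means the concentration at half of the fitted maximal effect; 0% = DMSO wells and 100% = buffer wells lacking importin beta; nearly all actives have a fitted effect of over 15% in size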
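Inhibition scored from the CFP 486 nm/YFP 530 nm FRET ratio 45 min after adding 0.125 microM importin beta to 50 nM Rango biosensor preincubated 5 min with compound (room temperature, PBS with DTT, Tween-20, BSA). No-importin wells as positive control.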
GLA inh pH 4.5 = alpha-galactosidase A (human) inhibition, pH 4.5. purified enzyme, 4-MU-alpha-Gal fluorescence, pH 4.5. 230,000 tested, under 10 active. activity change, negative = inhibition, % at 105 µM. AID 1467; inconclusive = small, poorly fitted or top-dose-only inhibition, or a rising curve; inactive = flat fitted curve, though single readings scatter; no compound was filed as active;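 further: 0% = full activity with enzyme and -100% = basal without enzyme; dose as in the result columns while the protocol names 77 µM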
Target sequence (P06280 whole entry, looked up): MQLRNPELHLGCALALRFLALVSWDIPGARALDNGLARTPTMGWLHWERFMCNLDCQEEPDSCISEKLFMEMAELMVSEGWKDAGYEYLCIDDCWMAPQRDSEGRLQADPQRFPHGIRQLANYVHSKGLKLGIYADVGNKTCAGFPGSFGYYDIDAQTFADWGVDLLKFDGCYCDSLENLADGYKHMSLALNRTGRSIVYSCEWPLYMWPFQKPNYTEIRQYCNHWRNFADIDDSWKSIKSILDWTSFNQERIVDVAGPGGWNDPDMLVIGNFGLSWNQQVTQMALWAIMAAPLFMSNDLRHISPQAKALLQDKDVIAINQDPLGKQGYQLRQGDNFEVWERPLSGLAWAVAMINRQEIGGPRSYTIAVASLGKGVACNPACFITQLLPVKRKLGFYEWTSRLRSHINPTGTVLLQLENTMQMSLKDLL
Rango dissoc inh = prevents RanGTP from dissociating the Rango-importin beta complex | O95149+P62826 | Biochemical FRET Rango-importin beta, RanGTP-induced dissociation | Potency, µM (titrated, usually from 46.1 µM), inactives show top-dose activity change, negative = inhibition | 340,000 tested, 0.071% active | AID 540253; active means falling FRET ratio curve, often poorly fitted, with flat reads before Ran was added; inconclusive means other falling curves, or compound fluorescence or quenching; inactive means flat or rising ratio curve;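 further: potency means the concentration at half of the fitted maximal effect; % of control where 0% means no effect; nearly all actives have a fitted effect of over 45% in size; -100% = wells without RanGTP and RCC1; the record marks most hits as doubtful in a second field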
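Rango/importin beta premix (0.1/0.25 uM final), PBS + 1 mM DTT + 0.02% Tween-20 + 0.1% BSA; cpd 5 min RT; FRET pre-read; + RanGTP-RCC1 (0.6 uM Ran, 2 mM GTP, 0.2 uM RCC1); 45 min RT; FRET post-read, ex 430, em 486/530 nm.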
miR-21 reporter = raises the signal of a miR-21 reporter | HeLa miR-21 FLuc reporter, luciferase, 48 h | Potency, µM (series often up to 38.3 µM), without a hit: at the top dose reporter change, positive = more light | 340,000 tested, under 10 active; active = well fitted rising curve with a large enough effect; inconclusive = small, poorly fitted or top-dose-only effect; inactive = no such curve, though single readings can be large or run the other way;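 further: % of control where 0% means no effect; miR-21 action dims this reporter so a rising signal means less miR-21 action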
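Compounds were titrated across several concentrations (up to approximately 40 uM) and incubated 48 hours with HeLa miR-21-FLuc reporter cells (miR-21 target sequence downstream of FLuc, endogenous miR-21). Readout was firefly luciferase luminescence after lytic detection reagent.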
Numbers without * were called inactive; u = inconclusive; x = no result given; & = joins results of further samples. This is a subset (hit frequency here may not be typical).

nr	mol	Rango dissoc inh	miR-21 reporter
1	COc1ccc(CCNC(=O)c2ccc(NC(=O)CC3SC(N4CCCCC4)=NC3=O)cc2)cc1 (centres undefined)	1%	x
2	Cc1cc(SCC(=O)OCC(=O)N(CCC#N)c2ccccc2)nc2ccccc12	-11%	x
3	CC(C)CC(NC(=O)C(NC(=O)OC(C)(C)C)C(C)C)C(=O)NC(CCC(=O)OCc1ccccc1)C(N)=O (centres undefined)	21%	6%
4	Cc1ccc2c(c1)C1(OCCCO1)C(=O)N2CC#N	-7%	3%
5	CCn1c(NC(=O)c2ccc(F)cc2)c2ccccc2nc1=O	12%	5%
6	Cc1[nH]nc(SCC(=O)N(C)c2ccccc2)c1[N+](=O)[O-]	-6%	-6%
7	COc1cccc(N=CC2=C(O)CC(C)(C)CC2=O)c1	11%	-2%
8	O=C(COc1ccc(C(=O)c2ccccc2)cc1)NC1CCCCC1	-6%	21%
9	Cc1ccc(C(O)P(=O)(OCCC(C)C)c2ccc(N(C)C)cc2)cc1 (centres undefined)	9%	10%
10	Cc1oc(-c2ccc(F)cc2)nc1CN1CCCC(C(=O)N2CCOCC2)C1 (centres undefined)	15%	-1%

nr	GLA inh pH 4.5	Rango complex inh
1	x	-2.6%
2	x	0.2%
3	0	-1.1%
4	x	-1.1%
5	-5	5.3%
6	5	0.2%
7	1	-0.9%
8	-2	-0.6%
9	x	1.1%
10	x	-0.5%

Part of the list above in order of length of the SMILES, descending.
nr	mol	Rango dissoc inh	miR-21 reporter
1	COc1ccc(CCNC(=O)c2ccc(NC(=O)CC3SC(N4CCCCC4)=NC3=O)cc2)cc1 (centres undefined)	1%	x
5	CCn1c(NC(=O)c2ccc(F)cc2)c2ccccc2nc1=O	12%	5%
4	Cc1ccc2c(c1)C1(OCCCO1)C(=O)N2CC#N	-7%	3%

nr	GLA inh pH 4.5	Rango complex inh
1	x	-2.6%
5	-5	5.3%
4	x	-1.1%

(continued)
nr	mol	Rango dissoc inh	miR-21 reporter
11	O=[N+]([O-])c1ccc2nc(CCCc3nc4ccc([N+](=O)[O-])cc4[nH]3)[nH]c2c1	-9%	-5%
12	COc1ccc(-c2nnc(SC(C)C(=O)Nc3nccs3)n2-c2ccccc2)cc1OC (centres undefined)	-4%	-7%
13	CSc1ccccc1NC(=O)Nc1ccccc1	-11%	-38%
14	Cc1ccc(NC(=O)CNc2ccc(Cl)c(Cl)c2)cc1S(=O)(=O)N(C)C	-7%	24%
15	Cc1cc([N+](=O)[O-])nn1CC(=O)NCCc1c[nH]c2ccccc12	25%	1%
16	COc1ccc(C(=O)CCC(=O)Nc2ccc(Cl)cc2)cc1	-7%	4%
17	Cc1c(C(=O)N(C)Cc2ccccc2)oc2ccc(S(=O)(=O)N3CCCC3)cc12	-12%	12%
18	NNC(=O)c1cc(-c2ccc(N)cc2)nc2ccc(Br)cc12	-21%	1%
19	COc1cccc(C2NC(=S)NC(C)=C2C(=O)c2ccccc2)c1OC (centres undefined)	-4%	22%
20	COc1cccc(NC(=O)C(C)Oc2ccccc2)c1 (centres undefined)	10%	-22%

nr	GLA inh pH 4.5	Rango complex inh
11	2	-1.6%
12	-4	-5.7%
13	5	-1.4%
14	-10	-0.2%
15	6	0.3%
16	x	2.4%
17	-9	6.3%
18	-12	u
19	6	-2.4%
20	-2	0.5%

Continued.
nr	mol	Rango dissoc inh	miR-21 reporter
21	COc1ccc(C)cc1NC(=O)c1cc(S(=O)(=O)N2CCOCC2)cn1C	17%	0%&-4%
22	COc1ccc(C(=O)NCCn2cc(SCC(N)=O)c3ccccc32)cc1	12%	-11%
23	COc1ccc(NC(=O)c2ccc(NC(=O)CCS(=O)(=O)c3cccs3)cc2)cc1	10%	-7%&-2%
24	CC(=O)c1ccc(NS(=O)(=O)c2cc3c(cc2C)N(C)CCO3)cc1	-1%	11%
25	Cc1cccc(N2CN(Cc3ccco3)CNC2=S)c1	17%	1%
26	O=c1cc(N2CCCCCC2)[nH]c(=O)n1-c1ccccc1Cl	9%	-4%
27	Cc1ccc(CN2C3=NCCCN3c3ccccc32)cc1	-20%	6%
28	COc1ccc(Nc2ccncc2[N+](=O)[O-])cc1	-2%	19%
29	OCc1cn(-c2ccccc2)nc1-c1cc2ccccc2o1	-3%	-45%
30	COC(=O)c1[nH]c2c(c1C)C(=O)CC(c1cc(OC)c(OC)c(OC)c1)C2 (centres undefined)	10%	20%

nr	GLA inh pH 4.5	Rango complex inh
21	x	3.8%
22	4	0.7%
23	x	1.8%
24	x	2.8%
25	6	-0.4%
26	4	1.5%
27	-3	1.1%
28	3	5.2%
29	3	-2.0%
30	x	1.2%

The list continues:
nr	mol	Rango dissoc inh	miR-21 reporter
31	COC(=O)c1nn(-c2ccccc2)c(-c2ccccc2)c1C(=O)c1ccccc1	-2%	5%
32	COC(=O)C1CC2=C(CCC2=O)N(c2ccccc2)C1=O (centres undefined)	23%	x
33	Cc1ccc2c(C(=O)CN3CCC4(CC3)OCCO4)c(C)[nH]c2c1	1%	-2%
34	Cc1cc[n+](-c2[nH]c(=O)sc2/C=N/N=C(\[O-])c2ccccc2)cc1	25%	-37%
35	O=C(COC(=O)Cc1cccs1)Nc1ccccc1Cl	-6%	-8%
36	Cc1ccccc1NC(=O)c1nnn(-c2ccc3c(c2)OCCO3)c1N	11%	-60%
37	CN(C(=O)COC(=O)c1cc(S(=O)(=O)N2CCOCC2)ccc1F)C1CCS(=O)(=O)C1 (centres undefined)	-6%	x
38	CC(=O)Oc1cc2oc(=O)cc(C)c2cc1Cl	u	1%
39	CN(C(=O)c1cccc(NC(=O)Cc2ccc(NC(=O)C3CCN(S(=O)(=O)c4cccc([N+](=O)[O-])c4)CC3)cc2)c1)C1CCCCC1	22%	x
40	CCC1Cc2c(nc(N)c3c(N)nc(N4CCOCC4)c(C#N)c23)O1 (centres undefined)	-2%	-11%

nr	GLA inh pH 4.5	Rango complex inh
31	5	1.6%
32	x	2.7%
33	-2	-1.4%
34	-9	-0.1%
35	-25	5.1%
36	x	8.9%
37	x	4.0%
38	u	u
39	x	-1.8%
40	0	-3.8%

More entries:
nr	mol	Rango dissoc inh	miR-21 reporter
41	CC(C)(C)c1ccc(OCC(=O)NN2Cc3ccccc3C2=N)cc1	-2%	-7%
42	COCCNC(=O)COc1ccc(C)cc1C(=O)c1cc(C#N)c(=O)n(C2CC2)c1	7%	-2%
43	COc1cccc(NS(=O)(=O)c2cc(C)ccc2OC)c1	21%	3%
44	CCOc1ccc(NC(=O)Nc2nc(SCC)ns2)cc1	-13%	18%
45	COc1ccc(OC)c(Cc2nnc(CCC(=O)NCc3nc4ccccc4s3)o2)c1	-2%	-17%
46	O=C(NCCN1C(=O)S/C(=C\c2cccnc2)C1=O)c1ccc(S(=O)(=O)N2CCCC2)cc1	14%	2%
47	Cc1ccc2nc(C)c3c(c2c1)N(c1ccc(F)cc1)CC3	1%	26%
48	CCc1noc(C)c1C(=O)N1CCN(S(=O)(=O)c2ccc(Cl)s2)CC1	-22%	x
49	O=C(O)c1ccc(COc2c(F)c(F)c(F)c(F)c2F)o1	3%	-49%
50	Cc1ccc(-c2nnc3c4ccccc4c(C)nn23)cc1S(=O)(=O)N1CCN(C)CC1	-6%	x

nr	GLA inh pH 4.5	Rango complex inh
41	-7	0.1%
42	-10	4.2%
43	3	-1.2%
44	x	-2.4%
45	-4	0.1%
46	1	-1.1%
47	4	1.4%
48	x	-1.6%
49	-8	4.4%
50	x	-1.4%

(list continues)
nr	mol	Rango dissoc inh	miR-21 reporter
51	Cc1ccc(NS(=O)(=O)c2ccc3c(c2)NC(=O)CO3)cc1	-1%	1%
52	O=C(CCS(=O)(=O)c1ccccc1)Nc1nc2cc3c(cc2s1)OCO3	-14%	-28%
53	COc1cc2c(cc1OC)CN(C(=O)C(C)(C)C)CC2	19%	-1%
54	C=CCN(c1ccccc1OC)S(=O)(=O)c1cccc(C(=O)OCC(=O)c2c[nH]c3ccccc23)c1	7%	2%
55	COc1cc(/C=N/N2CCN(c3ccccc3OC)CC2)ccc1OC(C)=O	-3%	-26%
56	CC(C)Sc1ncnc2[nH]ncc12	-2%	x
57	Cc1ccc(-c2noc(C3CCCN(C(=O)c4cccc(Cl)c4)C3)n2)o1 (centres undefined)	19%	-60%
58	Cc1ccc(NCc2nnc(SCC(=O)c3ccc4c(c3)OCCO4)o2)c(C)c1	8%	-9%
59	O=C(O)CCCCn1c(SCc2ccccc2Cl)nc2ccsc2c1=O	-11%	3%
60	CCc1ccc(NC(=O)CNCc2ccc(OC)c(OC)c2)cc1	26%	-9%

nr	GLA inh pH 4.5	Rango complex inh
51	x	-1.8%
52	4	u
53	1	-0.1%
54	-1	0.7%
55	x	-1.3%
56	x	-0.3%
57	x	-1.0%
58	1	-2.5%
59	5	-1.9%
60	x	-0.1%

Whole records, quoted from the list. Order of values: Rango dissoc inh, miR-21 reporter, GLA inh pH 4.5, Rango complex inh
Shown for O=C(O)c1ccc(COc2c(F)c(F)c(F)c(F)c2F)o1 = 3%, -49%, -8, 4.4%
Shown for COc1ccc(CCNC(=O)c2ccc(NC(=O)CC3SC(N4CCCCC4)=NC3=O)cc2)cc1 (centres undefined) = 1%, x, x, -2.6%
Shown for Cc1ccc2c(c1)C1(OCCCO1)C(=O)N2CC#N = -7%, 3%, x, -1.1%

Following part
nr	mol	Rango dissoc inh	miR-21 reporter
61	CC12CCC=CC1=C(C=O)C1C2CCC2(C)C(O)CCC12 (centres undefined)	-3%	x
62	CC(C)c1ccc(S(=O)(=O)N2CCN(CCC(=O)Nc3ccc(N(C)C)cc3)CC2)cc1	-14%	0%
63	O=C(COc1ccccc1)OCc1cc(-c2ccco2)on1	3%	x
64	Cc1cccc(-n2ccnc2SCC(=O)O)c1C	0%	-2%
65	COc1ccc[nH]c1=O	-7%	0%
66	CC[C@@H](C)[C@H](NC(=O)OC(C)(C)C)c1nnc(S(=O)(=O)Cc2cc(C)ccc2C)o1	-5%	u
67	CCCNC(=O)c1ccc(SC)cc1OC	-13%	-18%
68	CCCC(=O)N(CCN1CCOCC1)c1nc2c(OC)ccc(OC)c2s1	-5%	-9%
69	CCOc1cc(C2C(C#N)=C(N)Oc3n[nH]c(-c4ccncc4)c32)cc([N+](=O)[O-])c1O (centres undefined)	-2%	0%
70	CN(C)CCN1C(=O)C(O)=C(C(=O)c2cc3ccccc3o2)C1c1cccc(Br)c1 (centres undefined)	u	-4%

nr	GLA inh pH 4.5	Rango complex inh
61	x	0.8%
62	-2	3.2%
63	x	-0.2%
64	-2	-2.9%
65	2	1.2%
66	1	-2.9%
67	2	11%
68	x	0.4%
69	15	0.0%
70	3	-1.0%

Source: PubChem BioAssay
